# Screens: PubChem, several laboratories
# 26S disassembly – blocks ATP-dependent breakdown of the yeast 26S proteasome | anti-FLAG beads, GFP-proteasome disassembly, flow cytometry | 24,000 compounds, 0.2% hits | inhibition of disassembly, % (test concentration not listed) | AID 751;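 active = above 40%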;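 also: plate controls were ATP control with full disassembly for no effect and ATP-gamma-S intact proteasomes for full effect; higher percent means more bead fluorescence retained so stronger block of disassembly; stock transfer was 100 nL into about 10 µL; wells with too few beads may also be inconclusive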
# VCAM-1 up – enhancers of VCAM-1 display on endothelial cells, cell-based, plate reader, pooled HUVEC, TNFa stimulus (AID 455) | HUVEC TNFa-induced VCAM-1 immunofluorescence, plate reader; numbers were filed only for top-ranked candidate wells | augmentation, % at 5 µM | 10,000 compounds, 0.2% hits;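 active = a compound raising TNF-alpha-driven VCAM-1 surface staining, with its hit status upheld on visual or statistical review; inactive = the rest, including hits rejected on review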;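 also: 0% = TNFa with vehicle and 100% = strongest image-checked hit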
# Starred values were filed as active, the others as inactive; i = inactive; . = no result given. Not all compounds are listed; count on the stated rates, not on these rows.
Compound	26S disassembly	VCAM-1 up
Cc1nnc2c3ccccc3c(-c3ccccc3)nn12	-1.1	i
Clc1ccc(C2=CSC3=NCCN23)cc1Cl	1.2	.
O=C(OCc1nc2ccccc2s1)c1ccc(Br)s1	5.1	.
O=C(O)CCC(=O)N1CCc2cc(S(=O)(=O)NC3CCCc4ccccc43)ccc21 (stereo unspecified)	0.0	.
COC(=O)c1ccccc1NC(=O)c1cncc(Br)c1	1.3	.
COc1cccc(S(=O)(=O)Nc2cccnc2)c1	-0.7	i
CCOC(=O)c1cccc(NC(=O)CN(c2ccc(C)cc2)S(=O)(=O)c2c(C)noc2C)c1	0.8	.
O=C(CSc1nnc2ncccn12)N1CCCCCC1	-2.3	i
Cc1nc(C)c(C(=O)Nc2ccc(Oc3ccccc3)cc2)o1	1.5	i
CC(NC(=O)c1noc2c1CCCCC2)c1ccccc1 (stereo unspecified)	0.0	i
COc1ccc(NC(=O)C(c2ccccc2)N(C)C(=O)c2cnccn2)cc1 (stereo unspecified)	-1.7	.
CCN1CCN(c2nc3c(C)cccn3c(=O)c2/C=C(\C#N)S(=O)(=O)c2ccccc2)CC1	3.5	i
c1ccc2[nH]c(CSc3nnc(-c4ccncc4)o3)nc2c1	-0.2	i
O=C(O)c1cccc(NC(=O)C23CC4CC(C2)CC(n2cnc(Cl)n2)(C4)C3)c1	0.5	i
Cn1c(=O)c2nc(-c3ccc(Cl)cc3Cl)oc2c2ccccc21	0.0	.
CCOc1cc2[nH]c(=O)n(CCCC(=O)NCc3ccco3)c(=O)c2cc1OCC	-0.1	.
O=C(NCc1ccc(F)cc1)c1noc2c1CCCCC2	0.1	.
O=C(c1ccc2snnc2c1)N1CCOCC1	4.8	i
CCSc1nc2c(c(=O)n1-c1ccc(F)cc1)SCC2	1.6	.
Cc1c(C(=O)Nc2cccc(Cl)c2)oc2ccc(S(=O)(=O)N3CCC4(CC3)OCCO4)cc12	9.7	.
COc1ccc(N2C(=O)CC(N3CCN(S(=O)(=O)c4c(F)cccc4F)CC3)C2=O)cc1OC (stereo unspecified)	2.2	i
O=C(CN1C(=O)CCSc2ccccc21)Nc1ccc2c(c1)OCO2	2.4	i
CCCCn1cnc2c1c(=O)n(C)c(=O)n2C	-2.5	i
O=C(CSC1=Nc2ccccc2C2=NC(CC(=O)NCc3ccco3)C(=O)N12)NCC1CCCO1 (stereo unspecified)	-5.7	.
Cc1ccc(S(=O)(=O)CC2CSc3nnc(C)c(=O)n32)cc1 (stereo unspecified)	-0.8	i

# Filtered by structure, those above with two or more sulfur atoms.
Compound	26S disassembly	VCAM-1 up
O=C(OCc1nc2ccccc2s1)c1ccc(Br)s1	5.1	.
CCSc1nc2c(c(=O)n1-c1ccc(F)cc1)SCC2	1.6	.
Cc1ccc(S(=O)(=O)CC2CSc3nnc(C)c(=O)n32)cc1 (stereo unspecified)	-0.8	i

# (listing goes on)
Compound	26S disassembly	VCAM-1 up
CCOC(=O)Cc1c[nH]c2ccccc12	0.5	.
CCCS(=O)(=O)N1CCCC(C(=O)NCCCOCC)C1 (stereo unspecified)	-1.3	.
O=C(O)c1ccc(CSCc2c(F)cccc2Cl)o1	-0.7	.
CCn1nnc(-c2ccccc2NC(=O)c2ccc(-n3cnnn3)cc2)n1	-1.2	i
COc1ccc(C(=O)N2CCN(c3nc4cc(C)ccc4cc3C#N)CC2)c(OC)c1	2.4	i
CCCC(=O)Nc1c2c(nn1-c1ccc(OC)cc1)CS(=O)C2 (stereo unspecified)	-0.3	i
COc1ccc(C2CC(=O)N3CN(c4ccc(C)c(Cl)c4)CSC3=C2C#N)cc1OC (stereo unspecified)	1.5	.
CC1CCCC(NC(=O)c2ccc3c(c2)N(Cc2ccccc2)C(=O)CS3=O)C1C (stereo unspecified)	-0.5	.
COc1ccc(OC)c(NC(=O)CS(=O)(=O)Cc2nc(-c3ccccc3C)oc2C)c1	0.2	i
COc1ccc(C(=O)c2coc3ccc(O)c(CN4CCCCC4)c23)cc1	-0.2	i
Cn1c(=O)c2c(ncn2Cc2cccc(Cl)c2)n(C)c1=O	-0.7	.
Cc1cc(C(=O)NCc2ccc(S(N)(=O)=O)cc2)cs1	0.0	i
CC1=C(C(N)=O)C(c2ccccn2)n2nc(SCc3ccccc3Cl)nc2N1 (stereo unspecified)	-0.9	.
COCCn1nnnc1C(c1cc2ccc(OC)cc2[nH]c1=O)N1CCc2ccccc2C1 (stereo unspecified)	0.5	i
CCC(=O)n1nc(-c2ccc(OC)cc2)nc1N	1.4	.
COc1cc(-c2c(C#N)c(N)nc3c2CCCC3)cc(OC)c1OC	2.0	i
CCN1CCCC1CNS(=O)(=O)c1cc(Br)cc2c1N(C(=O)C1CC1)CC2 (stereo unspecified)	0.1	.
COc1cccc(C2=NOC(C(=O)Nc3cccnc3)C2)c1 (stereo unspecified)	-1.6	.
O=C(COn1nnc2ccc(C(F)(F)F)cc21)Nc1nnc(-c2ccccc2)o1	-1.6	i
O=C(O)c1ccc(COc2ccc(Cl)cc2)o1	-0.6	i
C=CCC(O)(CCN1CCCCC1)c1ccccc1 (stereo unspecified)	-3.4	.
COc1ccc(-c2cc(C(=O)Nc3c(C)nn(Cc4ccc(Cl)cc4)c3C)no2)cc1	-0.7	.
COCCN1C(=O)c2oc3ccccc3c(=O)c2C1c1ccc(OC)c(OC)c1 (stereo unspecified)	0.0	.
COc1cc2c(=O)n(CC3CCCO3)c(=O)n(CC(=O)Nc3cccc(Cl)c3)c2cc1OC (stereo unspecified)	-0.2	.
Cc1cc(NC(=O)C(C)(C)C)no1	-4.4	i

# 2 entries from above, with two lines to a compound.
# Sequence of screens – 26S disassembly	VCAM-1 up
COc1ccc(C2CC(=O)N3CN(c4ccc(C)c(Cl)c4)CSC3=C2C#N)cc1OC (stereo unspecified)
 : 1.5	.
CC1=C(C(N)=O)C(c2ccccn2)n2nc(SCc3ccccc3Cl)nc2N1 (stereo unspecified)
 : -0.9	.

# Following part
Compound	26S disassembly	VCAM-1 up
CNC(=O)c1ccsc1NC(=O)CN1C(=O)CCC1=O	0.9	i
CCCOc1ccc(-c2nnn(CC(=O)Nc3cccc(C(=O)OC)c3)n2)cc1	-2.0	i
CCN1C(=O)c2ccccc2S(=O)c2ccc(C(=O)N3CCN(C(=O)c4ccco4)CC3)cc21 (stereo unspecified)	3.9	.
Cc1ccc(N2CC(C)Cn3c2nc2c3c(=O)n(CC(=O)OCc3ccccc3)c(=O)n2C)cc1C (stereo unspecified)	-2.1	i
CCOc1ccc(N2CC(C(=O)Nc3ccc(F)cc3F)CC2=O)cc1 (stereo unspecified)	-1.9	i
CCOC(=O)CNC(=O)c1cn(CC)c(=O)c2cc(OC)c(OC)cc12	0.1	.
Cc1ccc(-c2nc(-c3ccccc3)no2)c(Cl)c1	4.1	.
O=C(CCC(=O)OCC(=O)c1ccccc1)NC1CCCCC1	0.6	i
Cc1noc(C)c1S(=O)(=O)N1CCC(C(=O)N(C)Cc2ccccc2)CC1	-0.9	.
O=C(O)CCCNCc1ccccc1F	-3.1	.
COC(=O)c1[nH]c2cc(OC)ccc2c1NC(=O)CN1CCOCC1	2.9	i
CN(CC(=O)NCc1cccc(F)c1)C(=O)c1ccco1	-0.8	.
CN(C)CCN(Cc1ccccc1)c1ccccn1	0.4	i
CC[N+](C)(C)Cc1ccccc1Br	-0.3	i
Cc1cccc(-c2nc(CSCC(=O)N3CCN(Cc4ccc5c(c4)OCO5)CC3)c(C)o2)c1	1.4	.
N#Cc1cnc(SCC(=O)c2ccccc2)nc1N	14.9	i
Cc1ccc(NC(=O)c2nnn(-c3cc(C)cc(C)c3)c2N)cc1	1.4	.
CSCCOC(=O)C1=C(C)NC(=O)CC1c1ccccc1Cl (stereo unspecified)	1.9	.
CC1(C)CC(=O)c2c(nn(-c3ccccc3)c2N)C1	-2.8	.
CCOC(=O)c1nnn(-c2nonc2N)c1CN(C)C1CCCCC1	-1.6	.
CCN(Cc1ccccc1)S(=O)(=O)c1ccc(C(=O)Nc2nnc(-c3ccccc3OC)o2)cc1	-1.4	.
COc1ccc(CCNC(=O)c2ccc(NS(=O)(=O)c3c(C)noc3C)cc2)cc1OC	-0.9	.
CCCC(=O)N1CCN(c2ccc(NC(=O)c3ccc(Br)o3)cc2)CC1	0.2	i
Cc1cc(S(=O)(=O)NCCN2CCOCC2)c(C)s1	-0.6	.
CCOC(=O)C1CCN(C(=O)Cn2cc3c(n2)CCC(C)C3)CC1 (stereo unspecified)	3.1	.
COc1ccccc1NC(=O)CN1CCN(CC(=O)Nc2ccc(OCc3ccccc3)cc2)CC1	1.5	.
Cc1nc(-c2cccc(N)c2)cs1	0.8	i
COc1ccc(C2C(C(=O)NCCN3CCOCC3)c3ccccc3C(=O)N2C)cc1OC (stereo unspecified)	0.3	.
CC(=O)NCCn1ccc2ccccc21	-1.2	i
CC1=C(C(=O)N2CCCCC2)C2(CCC(C)CC2)OC1=O (stereo unspecified)	-0.3	i
O=C(c1ccc(S(=O)(=O)N2CCOCC2)cc1)N(c1ccc(F)cc1)C1C=CS(=O)(=O)C1 (stereo unspecified)	-0.9	i
CC(=O)c1coc2ccc(OCC(=O)O)cc12	1.3	i
CCOC(=O)N1CCN(C(=O)CCn2nc(-c3ccccc3)ccc2=O)CC1	0.4	.
CCOC(=O)CCn1c2nc(C)cc(C)c2c(=O)n1-c1ccccc1	0.6	.
COc1ccc(CCNC(=O)c2cnc3scc(C)n3c2=O)cc1OC	-1.2	i
CCCc1cc(C(=O)Nc2sc3c(c2C#N)CCC3)no1	0.8	i
CCc1nnc(NC(=O)c2cc3ccccc3oc2=O)s1	-0.3	i
Cc1c(C(=O)N2CCCC2)sc(NC(=O)c2cccs2)c1C#N	0.1	i
Cn1c(=O)cc(SCC(=O)NCCN2CCN(c3ccccc3F)CC2)c2cc(Cl)ccc21	0.5	.
CCc1ccc(NC(=O)N(CCN2CCOCC2)C2CCN(C(C)=O)CC2)cc1	-1.1	.
Cc1cc(/N=C/N(C)C)on1	-2.4	i
COCCOC(=O)C1=C(C)N=c2s/c(=C\c3cccs3)c(=O)n2C1c1cccs1 (stereo unspecified)	1.1	i
COC(=O)c1[nH]c2c(c1C)C(=O)CC(c1cccs1)C2 (stereo unspecified)	4.1	i
CCCS(=O)(=O)N1CCC(C(=O)NCc2ccccc2Cl)CC1	-0.3	.
Cn1cccc1Cc1nnc(SCC(=O)NCC2CCCO2)n1-c1ccc(F)cc1 (stereo unspecified)	1.3	i
CCOC(=O)C1CCCN(c2c(N3CCN(C4CCCCC4)CC3)c(=O)c2=O)C1 (stereo unspecified)	1.3	.
CC(=O)Nc1ccc(S(=O)(=O)N2CCSC2C(=O)O)cc1 (stereo unspecified)	0.3	.
Cc1cccn2c(=O)c(C=Nc3ccccc3)c(NCc3ccco3)nc12	0.5	.
COc1ccc(C(=O)c2ccc(N(C)C)cc2)c(OC)c1	2.1	.
C=CCN1C(=Nc2cccnc2)SCC1(O)c1ccc(C)cc1 (stereo unspecified)	1.3	.

# Looked up one by one from the entries so far:
Compound	26S disassembly	VCAM-1 up
O=C(CSc1nnc2ncccn12)N1CCCCCC1	-2.3	i
CC(NC(=O)c1noc2c1CCCCC2)c1ccccc1 (stereo unspecified)	0.0	i

# (further entries)
Compound	26S disassembly	VCAM-1 up
CNC(=O)CN(c1ccc(C(C)C)cc1)S(C)(=O)=O	-1.8	i
CCCS(=O)(=O)N1CCN(CC2CC3C=CC2C3)CC1 (stereo unspecified)	-0.9	.
Cc1ccc2nc(NC(=O)CN(C)S(=O)(=O)c3ccc(Br)s3)sc2c1	0.1	.
Cc1nn(-c2ccccc2)c2sc(C(=O)NCCN3CCOCC3)cc12	0.1	.
NC(=O)CSC1=Nc2ccccc2C2=NC(CCC(=O)NCc3ccc(F)cc3)C(=O)N12 (stereo unspecified)	-4.8	.
O=C(NCCCN1CCN(c2ccccc2F)CC1)C1CCN(S(=O)(=O)c2cccs2)CC1	0.6	.
CCCN1CCN(C(=O)Cn2c(=O)oc3cc(S(=O)(=O)NCc4ccccc4)ccc32)CC1	0.0	i
O=C(c1ccccc1Cl)N1CCC(c2nc3c(nnn3Cc3ccco3)c(=O)[nH]2)CC1	-0.9	.
Cc1cccc(NC(=O)Cn2cccc2)c1	-0.1	.
CCOC(=O)C1CCCN(C(=O)c2cc3c(C)nc4ccccc4c3o2)C1 (stereo unspecified)	-2.0	i
CCN(CC)S(=O)(=O)c1ccc(N2CCCC2)c(C(=O)OCC(=O)/C(C#N)=C(\C)N)c1	-0.1	i
COC(=O)c1cc2occc2n1Cc1c(F)cccc1Cl	0.5	.
COCCCNC(=O)CSc1nc2ccccc2c(=O)n1CCCC(=O)NCC1CCCO1 (stereo unspecified)	-2.2	.
CCCS(=O)(=O)N1CCCC(C(=O)NCCCN2CCN(c3ccc(F)cc3)CC2)C1 (stereo unspecified)	-0.6	.
COc1ccccc1C(=O)N1CCN=C1SCc1cccnc1	-0.5	i
CCCC(=O)NC(C)C(c1cccs1)N1CCN(c2ccccc2)CC1 (stereo unspecified)	-1.8	.
Cc1sc2nc(SCC(=O)Nc3c(C)n(C)n(-c4ccccc4)c3=O)n(C)c(=O)c2c1C	10.7	i
N#Cc1nc(COc2ccc(Br)cc2)oc1N1CCCC1	-0.4	i
